Bioassay records as filed in PubChem BioAssay.
Calb FLC: C. albicans growth modulation with fluconazole. C. albicans CaCi-2 (fluconazole-resistant clinical isolate) + fluconazole, Alamar Blue growth, 48 h. growth inhibition, % (no concentration beside the values). 300,000 compounds, 0.57% hits;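 active means most replicates above 75%; inconclusive means exactly half above 75%; inactive means most below 75%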;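 further: all wells also contain fluconazole at 8 µg/ml as a sub-toxic cotreatment; 0% = median of DMSO wells and 100% = median of geldanamycin control wells; wells of about 8 µL received 7.5 nL stock; the first replicate is given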
Beta apoptosis: blocks beta cell apoptosis | INS-1E cytokine-induced death, ATP luminescence, 48 h; percent of positive-control rescue, neutral wells zero | 300,000 compounds, 0.8% hits | AID 435005 | protection from apoptosis, % (test concentration not listed);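 active means all replicates at 75% or more, or half of them and the mean; inconclusive means half reach 75% but not the mean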;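 further: 0% = cytokine-treated negative control wells and 100% = positive control rescue; higher means more ATP so stronger rescue from cytokine killing; wells of about 40 µL received 100 nL stock; the first replicate is given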
AF4-AF9 inh: inhibitors of human MLL-AF4/AF9 interaction; P42568; AlphaScreen, biotin-AF4 peptide binding to FLAG-AF9; inhibition, % at 10 µM; 350,000 compounds, 0.47% hits;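 active means every replicate reaching a set inhibition limit, whatever the replicate mean, cut at about 25% in these data; inconclusive means mean inhibition reaches that limit but some replicates miss it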;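 further: 0% = plate neutral control median and 100% = total signal loss; the record names both 10 and 1 µM as test concentration; the first replicate is given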
Target sequence (P42568 whole entry, looked up): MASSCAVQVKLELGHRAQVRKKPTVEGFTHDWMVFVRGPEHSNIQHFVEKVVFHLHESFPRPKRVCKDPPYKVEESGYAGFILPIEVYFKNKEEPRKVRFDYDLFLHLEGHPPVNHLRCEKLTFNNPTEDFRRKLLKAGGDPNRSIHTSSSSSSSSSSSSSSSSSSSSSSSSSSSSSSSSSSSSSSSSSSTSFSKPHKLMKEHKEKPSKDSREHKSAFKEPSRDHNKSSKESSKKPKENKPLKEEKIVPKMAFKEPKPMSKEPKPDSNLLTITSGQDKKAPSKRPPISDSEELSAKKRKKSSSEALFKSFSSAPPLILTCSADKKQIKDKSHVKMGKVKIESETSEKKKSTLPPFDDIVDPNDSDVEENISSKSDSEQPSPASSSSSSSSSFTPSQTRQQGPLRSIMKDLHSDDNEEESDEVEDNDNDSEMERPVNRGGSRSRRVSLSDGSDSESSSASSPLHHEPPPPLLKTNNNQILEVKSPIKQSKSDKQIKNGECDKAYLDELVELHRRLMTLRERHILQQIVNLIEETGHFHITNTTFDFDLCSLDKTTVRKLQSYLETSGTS
T cruzi inh: T. cruzi replication inhibition; inhibition, % (concentration not given with the values); 300,000 compounds, 1.4% hits; T. cruzi beta-gal in NIH3T3, luminescence, 90 h;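 active means mean inhibition across valid replicates above about 55%, limit read from the data; inconclusive means mean below that limit but half or more replicates reach it; inactive means mean below it, under half of replicates reach it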;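 further: signal also drops with host cell toxicity which is not excluded here; 0% = plate median of DMSO wells and 100% = zero luminescence signal; higher percent means less beta-gal luminescence so fewer parasites; stock transfer was 50 nL into about 50 µL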
RanGTP-Impb inh: inhibitors of RanGTP-importin-beta interaction, primary screen, biochemical, FRET, CFP-Ran, YFP-importin-beta, homogeneous; inhibition, % (test concentration not listed); 300,000 compounds, 1.1% hits; cell-free CFP-Ran/YFP-importin-beta FRET ratio;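 active means most replicates above 15%; inconclusive means exactly half above 15%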;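 further: 0% = DMSO wells and 100% = Ran loaded with GDP instead of GTP; wells of about 40 µL received 100 nL stock; the first replicate is given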
FGF22 binding: binders of recombinant human FGF22 by thermal shift; calls only at 9.99 µM; Q9HCT0; 340,000 compounds, 1.5% hits; SYPRO orange fluorescence; percent of sucrose octasulfate shift, DMSO zero;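 active means melting point raised past a set limit in the mean and every replicate; inconclusive means no clear call; three in four hits are not shown here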
Target sequence (Q9HCT0 whole entry, looked up): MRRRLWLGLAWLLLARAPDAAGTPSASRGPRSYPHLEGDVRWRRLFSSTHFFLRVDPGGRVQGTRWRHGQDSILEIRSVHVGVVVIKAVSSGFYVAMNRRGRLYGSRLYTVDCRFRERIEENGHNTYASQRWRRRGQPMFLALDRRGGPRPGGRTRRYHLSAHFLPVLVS
Ecoli rRNA inh: selective bacterial rRNA inhibition in E. coli; 350,000 compounds, 1.6% hits; AID 720706; E. coli WT GFP vs humanized-ribosome RFP mutants, fluorescence, 24 h; hits give low values; DMSO median 0, no signal -100; GFP signal change (wild-type ribosome), % (no concentration beside the values);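 active means significant combined selectivity score with lowered wild-type GFP, culture density cut under 30%, mutant RFP and density less affected; inactive means any of these conditions unmet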; further: one replicate is shown; some compounds called inactive have numbers as strong as hits
ALR H2O2 inh: blocks human ALR sulfhydryl oxidase activity; AID 485317; P55789; purified ALR, DTT oxidation, H2O2 HRP-luminol luminescence; inhibition, % (no concentration beside the values); 290,000 compounds, 3.8% hits;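 active means mean and each replicate at 75% or more; inconclusive means only one of the two met; inactive means neither met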;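 further: stock transfer was 7.5 nL into about 7.5 µL; 0% = neutral wells and 100% = wells with inactivated enzyme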
Target sequence (P55789 whole entry, looked up): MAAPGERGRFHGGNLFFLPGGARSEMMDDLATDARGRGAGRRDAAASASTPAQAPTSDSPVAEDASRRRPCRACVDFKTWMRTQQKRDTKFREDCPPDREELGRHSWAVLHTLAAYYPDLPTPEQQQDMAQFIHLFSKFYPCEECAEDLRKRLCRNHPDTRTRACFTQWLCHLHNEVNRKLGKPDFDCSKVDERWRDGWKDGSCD
Ecoli rRNA inh OD600: also measured in Ecoli rRNA inh; calls as there; OD600 change, %; measured here: OD600 growth;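 optical density of the mix in the first replicate; 0 = DMSO median and -100 = no signal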
Ecoli rRNA inh RFP: further read-out of Ecoli rRNA inh, marked with its call; RFP signal change, %; measured here: RFP humanized mutant strains;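 first replicate; 0 = DMSO median and -100 = no signal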
Numbers without * were called inactive; i = inactive; u = inconclusive; x = no result given; & = joins results of further samples. Some of the compounds tested, so the mix of outcomes need not match the whole.

no. | SMILES | Calb FLC | Beta apoptosis | AF4-AF9 inh | T cruzi inh | RanGTP-Impb inh | FGF22 binding | Ecoli rRNA inh | Ecoli rRNA inh OD600 | Ecoli rRNA inh RFP | ALR H2O2 inh
1 | COc1ccc(-n2c(O)c(C(C)=Nc3ccc4c(c3)CCC4)c(=O)[nH]c2=O)cc1 | -4 | -2 | x | -28 | -4.6 | i | 3 | 3 | -0.3 | 0
2 | CC(C)Oc1ccc(CC2(CCc3ccncc3)C(=O)NC(=O)NC2=O)cc1 | 20 | 6 | 0.3 | -12 | -2.5 | i | 6 | -1 | -0.2 | -1
3 | NCC(CC(=O)O)C1CCCCC1 (configuration not stated) | -4 | 2 | -12 | 8 | -2.7 | i | 17 | 6 | -5.2 | -9
4 | COc1cccc(C(=O)C2CN(C)CC2c2ccc(Cl)cc2)c1 (configuration not stated) | -20 | -19 | 6.0 | 12 | -3.8 | i | -9 | -11 | -2.3 | 7
5 | CCOC(=O)c1cc(C(O)(C(=O)OC)C(F)(F)F)c(/N=C/N(C)C)o1 (configuration not stated) | 5 | 0 | x | -18 | -0.7 | x | x | x | x | -9
6 | COc1ccc(C(=O)C2CCCN(Cc3cnc(C)s3)C2)c(OC)c1 (configuration not stated) | -20 | 33 | -16 | 8 | 3.6 | i | 2 | 1 | 3.2 | -6
7 | CC(NCc1ccccc1Cl)C(O)c1ccccc1 (configuration not stated) | -7 | 5 | 1.0 | -16 | 5.4 | i | 5 | 11 | 1.2 | -9
8 | CN[C@H](C)[C@H](O)c1ccccc1 | x | -5 | -11 | -4 | 1.8 | x | x | x | x | 3
9 | C[C@]1(O)CCC2C3CC[C@H]4C[C@@H](OC(=O)CNC(=O)CN)CC[C@]4(C)C3CC[C@@]21C (some centres not stated) | x | 2 | -3.7 | x | x | i | -61 | -79 | -17 | -6
10 | CCN(CC)C(=O)c1ccc(NC(=O)c2cccc(F)c2)cc1 | -3 | -4 | x | -9 | 0.8 | x | x | x | x | -6
11 | CCCCN1C(=O)/C(=C\c2ccco2)C(=O)N(CCc2ccccc2)C1=O | 3 | -10 | x | 7 | -1.3 | x | x | x | x | x
12 | O=C(O)C1C2c3ccccc3C(c3ccccc32)C1C(=O)Nc1ccccc1 (configuration not stated) | 0 | -1 | -0.1 | -8 | -1.0 | i | -7 | 2 | 2.2 | 15
13 | CCC(=NCCc1ccccc1)c1c(O)[nH]c(=O)[nH]c1=O | 10 | -10 | x | -12 | 0.5 | i | 5 | -8 | 0.7 | -26
14 | O=c1[nH]c(O)c(C=NC2CCCCC2)c(=O)[nH]1 | 0 | 3 | -4.9 | -10 | 1.7 | i | 25 | 9 | 2.5 | -9
15 | O=c1[nH]c(=O)n(CCC2=CCCCC2)c(O)c1C=NCCCn1ccnc1 | 9 | -13 | x | -24 | 0.0 | x | x | x | x | -6
16 | CC1=NCCc2c1[nH]c1ccccc21 | -9 | 0 | 7.8 | 25 | 4.4 | i | x | x | x | -3
17 | Cc1ccc(N2C(=O)NC(=O)C3(Cc4ccccc4N4CCN(c5ccccc5)CC43)C2=O)cc1 (configuration not stated) | 11 | 3 | x | 30 | u | x | x | x | x | 23
18 | Clc1cccc(CNCCc2c[nH]c3ccccc23)c1 | -3 | -2 | 12 | 17 | 1.7 | i | -11 | -24 | 2.0 | 29
19 | Clc1ccc(N2CCNCC2)nn1 | -1 | 0 | -0.8 | x | x | i | 14 | 8 | -6.5 | 67
20 | O=c1[nH]c(=O)n(-c2ccccc2F)c(O)c1C=NCCC1=CCCCC1 | 34 | -4 | 0.5 | -11 | 6.9 | i | 12 | 2 | -0.7 | -2
21 | COc1cc2c(cc1O)CC1c3c(cc(O)c(OC)c3-2)CCN1C (configuration not stated) | 0 | -6 | 1.4 | -11 | 0.7 | i | x | x | x | 99*
22 | Cc1cc(=O)oc2c(C)c(OCC(=O)N3CCN(Cc4ccccc4)CC3)ccc12 | -3 | x | 0.1 | 9 | 0.0 | i | -12 | -15 | 0.8 | 0
23 | CN1CCN(/N=C/c2c(O)n(CCC3=CCCCC3)c(=S)[nH]c2=O)CC1 | -2 | 4 | 6.2 | 22 | -2.4 | i | 5 | 5 | 14 | 35
24 | COc1cc(OC)c(OC)cc1CN1CCN(C(=O)COc2ccc3ccccc3c2)CC1 | 1 | -2 | 7.7 | 40 | 4.0 | i | -4 | -8 | 6.0 | x
25 | Cn1cc(C(=O)Cc2ccccc2)c2ccccc21 | -10 | -4 | -1.1 | -36 | 1.8 | i | 2 | 2 | -2.9 | -2
26 | O=C(Nc1ccc(F)cc1)c1c(O)c2c(n(Cc3ccccc3)c1=O)CCCC2 | -4 | 9 | -0.9 | 15 | -1.5 | i | 19 | 10 | 1.2 | -24
27 | CCN(CC)CCCN=Cc1c(O)n(CCc2ccc(F)cc2)c(=O)[nH]c1=O | -4 | -6 | x | 1 | 3.3 | x | x | x | x | -7
28 | COc1ccc(CN2CCN(c3ccccc3F)CC2)cc1O | -1 | x | x | -12 | -2.6 | x | x | x | x | 14
29 | CN1CCN(CC#CCOc2ccc(Cl)cc2)CC1 | -11 | -4 | -0.2 | 39 | -0.2 | i | 14 | 1 | 1.4 | x
30 | COc1ccc(/C=C/C(=O)NC(=S)N2C[C@H]3C[C@H](C2)c2cccc(=O)n2C3)cc1OC | -2 | -2 | -2.3 | -13 | 4.5 | i | x | x | x | x
31 | C=CCn1c(O)c(C(C)=Nc2ccc(C(=O)OCC)cc2)c(=O)[nH]c1=O | 20 | -1 | x | -7 | -1.8 | x | x | x | x | 0
32 | Cc1ccc(N2C(=O)NC(=O)/C(=C/C=C/c3ccco3)C2=O)cc1 | 7 | 9 | x | -4 | -3.9 | x | x | x | x | 34
33 | Cc1cc(C)n2nc(C)[n+](C)c2n1 | 0 | -2 | x | -10 | -2.4 | x | x | x | x | 6
34 | CN1CCC(N(C)Cc2cccnc2)CC1 | 30 | -5 | x | -4 | 6.7 | x | x | x | x | -3
35 | CN(C)CC1CSCCC1(O)c1ccccc1Cl (configuration not stated) | 0 | -7 | x | -13 | 1.0 | x | x | x | x | -1
36 | Cn1c(O)c(/C=N/N2CCOCC2)c(=O)n(-c2ccccc2)c1=S | 9 | -5 | -1.2 | x | -3.9 | i | x | x | x | x
37 | COc1cccc(CNCCc2cccc(F)c2)c1OC | -19 | -3 | -5.1 | 59* | 0.8 | i | 2 | 9 | 0.3 | -21
38 | OC(Cn1c2ccccc2c2ccccc21)C[n+]1cccc2ccccc21 (configuration not stated) | 4 | 3 | x | 23 | 6.3 | x | x | x | x | -21
39 | Cc1cccc(NC(=O)OC2CN3CCC2CC3)c1 (configuration not stated) | 26 | x | 2.9 | -4 | 1.7 | i | 20 | 7 | -4.2 | -3
40 | Cn1c(O)c(C=NCCN2CCOCC2)c(=O)n(C)c1=S | 5 | -20 | 0.0 | -10 | 8.6 | i | 3 | -9 | -0.4 | -8

Another view of part of the listing above.
36) Cn1c(O)c(/C=N/N2CCOCC2)c(=O)n(-c2ccccc2)c1=S
37) COc1cccc(CNCCc2cccc(F)c2)c1OC
38) OC(Cn1c2ccccc2c2ccccc21)C[n+]1cccc2ccccc21 (configuration not stated)
39) Cc1cccc(NC(=O)OC2CN3CCC2CC3)c1 (configuration not stated)

| entry no. | 36 | 37 | 38 | 39 |
| --- | --- | --- | --- | --- |
| Calb FLC | 9 | -19 | 4 | 26 |
| Beta apoptosis | -5 | -3 | 3 | x |
| AF4-AF9 inh | -1.2 | -5.1 | x | 2.9 |
| T cruzi inh | x | 59* | 23 | -4 |
| RanGTP-Impb inh | -3.9 | 0.8 | 6.3 | 1.7 |
| FGF22 binding | i | i | x | i |
| Ecoli rRNA inh | x | 2 | x | 20 |
| Ecoli rRNA inh OD600 | x | 9 | x | 7 |
| Ecoli rRNA inh RFP | x | 0.3 | x | -4.2 |
| ALR H2O2 inh | x | -21 | -21 | -3 |

The list continues.
no. | SMILES | Calb FLC | Beta apoptosis | AF4-AF9 inh | T cruzi inh | RanGTP-Impb inh | FGF22 binding | Ecoli rRNA inh | Ecoli rRNA inh OD600 | Ecoli rRNA inh RFP | ALR H2O2 inh
41 | O=C(Cc1ccccc1)N1CCN(Cc2ccccc2Cl)CC1 | 0 | 0 | -0.8 | 8 | 6.7 | i | -4 | -9 | -0.3 | -2
42 | C[C@H]1CCCC(=O)CCCCCc2cc(O)cc(O)c2C(=O)O1 | x | -3 | 1.1&-1.9 | -10 | 5.0 | i | x | x | x | 12
43 | Cc1nc2c(=O)n(C)c(=O)nc-2n(C)n1 | 19 | 106* | x | 31 | 1.7 | x | x | x | x | -37
44 | COC(=O)C1=C(c2cc3ccccc3o2)C[C@@H]2CC[C@H]1N2C | x | 2 | 2.7 | x | x | i | 2 | 9 | -10.0 | -5
45 | COc1ccc2c(c1O)-c1cccc3c1[C@@H](C2)N(C)CC3 | -5 | x | -11 | -10 | -0.7 | i | -5 | -3 | 6.2 | -6
46 | CCOc1ccc(C2C(C#N)=C(N)Oc3c2c(=O)oc2ccccc32)cc1 (configuration not stated) | u | x | -0.4 | -1 | -1.2 | x | x | x | x | x
47 | O=[N+]([O-])c1cc(-n2cnnn2)c(O)c([N+](=O)[O-])c1 | 0 | 4 | 5.1 | -9 | 1.9 | i | 13 | 4 | -1.1 | x
48 | O=C1/C(=C\c2cccnc2)N2CCC1CC2 | -4 | -6 | x | -7 | 1.5 | i | -4 | 2 | -0.5 | 2
49 | Cc1cccc(OP(N)(=O)Oc2cccc(C)c2)c1 | 0 | -3 | -3.9 | -17 | 1.6 | i | -20 | -23 | -2.3 | 5
50 | CCC/C=C(\CCC)C(NP(=O)(c1ccccc1)c1ccccc1)c1ccccc1 (configuration not stated) | 12 | 4 | x | 50 | 2.4 | x | x | x | x | -10
51 | CCOC(=O)c1c(C)n(CCOC)c2ccc(O)cc12 | -5 | -3 | x | -1 | -1.2 | x | x | x | x | -15
52 | Cc1ccc(CS(=O)(=O)CCC(=O)N2CCC3(CC2)OCCO3)cc1 | -4 | -2 | x | 3 | -1.4 | x | 0 | 4 | -3.6 | -5
53 | O=C1C2CCCN2C(c2ccc(Cl)c(Cl)c2)N1c1ccccn1 (configuration not stated) | 4 | -9 | x | 0 | -2.1 | x | x | x | x | -4
54 | COc1ccc(N=Cc2c(O)n(Cc3ccccc3)c(=S)[nH]c2=O)c(OC)c1 | 41 | 2 | -0.7 | 7 | -7.5 | i | 6 | -8 | 0.6 | 8
55 | Cc1cc(C(=O)O)c(C)n1C1CC1 | 27 | -2 | 5.7 | 8 | 4.0 | i | 7 | 1 | -6.2 | 0
56 | Cc1ccsc1CNCCc1ccccc1F | 1 | -1 | 0.1 | 4 | 1.3 | i | 3 | 9 | -2.1 | 2
57 | CC(C)(C)c1cc(C=C(C#N)C#N)cc(C(C)(C)C)c1O | x | 117* | 4.9 | x | x | i | x | x | x | 17
58 | CC(=O)OC1N=C(c2ccccc2)c2cc(Br)ccc2NC1=O (configuration not stated) | 5 | -2 | x | 5 | -4.1 | x | x | x | x | 0
59 | Cc1ccc(C(=O)N/C(=C\Cl)P(=O)(c2ccccc2)c2ccccc2)cc1 | -4 | 1 | 0.4 | 5 | 1.4 | i | 5 | -9 | -1.7 | 0
